Screening data: PubChem BioAssay, National Center for Advancing Translational Sciences (NCATS)
hNpr1 antagonist – blocks ANP-stimulated signaling of human Npr1 receptor; P16066; HEK293 hNpr1 GloSensor cGMP, ANP-stimulated luminescence; Potency, µM (titrated, usually from 46.3 µM), for the others: at the highest dose activity change, negative = inhibition, usual class: inhibitors; actives 1.6% (n = 76,000); AID 1347048; active = well fitted inhibition curve with a large enough effect; inconclusive = small, poorly fitted or top-dose-only effect; inactive = no such curve, though single readings can be large or run the other way;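 note: nearly all actives have a fitted effect of over 60% in size; nearly all hits also lower the signal before the agonist is added; a reference antagonist and vehicle were the controls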
Target sequence (P16066 whole entry, looked up): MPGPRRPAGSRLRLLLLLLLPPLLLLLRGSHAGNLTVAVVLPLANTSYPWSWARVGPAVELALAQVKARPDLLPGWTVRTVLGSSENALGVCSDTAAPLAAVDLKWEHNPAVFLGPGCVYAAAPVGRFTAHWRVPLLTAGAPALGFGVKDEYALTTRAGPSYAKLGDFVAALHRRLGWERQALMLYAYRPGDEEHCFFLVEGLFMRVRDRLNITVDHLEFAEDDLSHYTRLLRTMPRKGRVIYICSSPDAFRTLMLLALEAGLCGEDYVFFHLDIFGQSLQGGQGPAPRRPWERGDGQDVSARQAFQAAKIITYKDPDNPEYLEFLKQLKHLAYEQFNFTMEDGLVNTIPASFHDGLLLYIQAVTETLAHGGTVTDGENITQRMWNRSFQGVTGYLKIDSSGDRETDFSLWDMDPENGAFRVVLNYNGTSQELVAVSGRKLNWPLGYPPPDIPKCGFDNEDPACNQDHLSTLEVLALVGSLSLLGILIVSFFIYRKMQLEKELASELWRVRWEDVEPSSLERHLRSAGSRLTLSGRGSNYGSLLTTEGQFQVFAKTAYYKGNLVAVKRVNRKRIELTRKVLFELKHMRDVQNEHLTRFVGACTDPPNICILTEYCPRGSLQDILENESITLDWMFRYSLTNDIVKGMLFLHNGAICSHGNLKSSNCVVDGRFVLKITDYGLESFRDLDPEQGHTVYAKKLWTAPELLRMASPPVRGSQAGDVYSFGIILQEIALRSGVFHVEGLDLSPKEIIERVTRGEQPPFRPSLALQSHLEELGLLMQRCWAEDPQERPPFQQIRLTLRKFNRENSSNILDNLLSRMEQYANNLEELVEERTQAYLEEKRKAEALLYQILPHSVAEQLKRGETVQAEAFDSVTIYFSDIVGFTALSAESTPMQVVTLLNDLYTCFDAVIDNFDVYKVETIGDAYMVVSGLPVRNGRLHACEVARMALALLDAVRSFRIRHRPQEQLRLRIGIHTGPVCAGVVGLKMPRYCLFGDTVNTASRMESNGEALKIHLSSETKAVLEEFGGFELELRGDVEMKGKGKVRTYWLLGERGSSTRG
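Compound pre-incubated 30 min at room temperature on GloSensor-loaded HEK293 cells stably carrying hNpr1 and the pGS-40F cGMP biosensor. Stimulation uses hNppA at 0.1 nM final; luminescence is taken at baseline and 20 min post-agonist.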
* hit, by the source's call; ? = inconclusive; [ ] = another dose, or the depositor's remark. % is set by controls: 0 for no effect and ±100 for the full control effect; potency is the fitted concentration of half-maximal effect. A portion of the library (hit frequency here may not be typical).

Structure	hNpr1 antagonist
COc1cc(OC)c(NC(=O)c2c(OC)cc(=O)n3c2CCCC3)cc1Cl	1.2%
CC(=O)Nc1ccc(S(=O)(=O)N[C@H]2CO[C@H]3[C@@H]2OC[C@@H]3Nc2nccc(-c3ccco3)n2)cc1	12.6µM*
CCn1cnnc1CC1CCCN(C(=O)Nc2cccc(C)c2)C1 (configuration not stated)	-4.5%
COc1ccc(CN2CCC3(CC2)CC(=O)c2ccc(Cl)cc2O3)cc1	-2.2%
COc1ccc(Cn2c(=O)c3ccnn3c3ccc(C(=O)O)cc32)cc1	3.7%
CCCS(=O)(=O)N1CCC(c2nc(CCOc3ccc(F)cc3)no2)C1 (configuration not stated)	8.9%
O=C(CCN1CCOC(C(F)(F)F)C1)NCc1ccccc1Cl (configuration not stated)	-1.3%
CCn1cc(CN2CCC(c3[nH]ncc3-c3ccccc3C)CC2)cn1	-8.9%
O=C(c1ccoc1)N1CCC2(CC1)N=C(c1ccccc1)NO2	1.7%
COc1ccc(-c2cc3c(=O)n(CCNC(=O)c4ccoc4)ccn3n2)cc1	-11.6%
CN1CCC2(CC1)CN(C(=O)CCc1ccccc1)Cc1ccccc1O2	-10.1%
CCN(C(=O)CCC(=O)N1CCCC(Cc2nncn2-c2ccccc2)C1)c1ccccc1 (configuration not stated)	0.1%
COCC[C@]1(O)CCN(C(=O)c2csc(CN(C)C)n2)C[C@H]1C	16.1%
CCn1cc(CN2CC[C@H]3C(=O)NCCCCCCN(Cc4ccncc4)[C@@H]3C2)cn1	-1.3%
O=S(=O)(c1cccs1)N1CCOC(Cc2cccc(F)c2)C1 (configuration not stated)	1.1%

Not a retest: entries from further up.
Structure	hNpr1 antagonist
COc1cc(OC)c(NC(=O)c2c(OC)cc(=O)n3c2CCCC3)cc1Cl	1.2%
CC(=O)Nc1ccc(S(=O)(=O)N[C@H]2CO[C@H]3[C@@H]2OC[C@@H]3Nc2nccc(-c3ccco3)n2)cc1	12.6µM*
CCn1cnnc1CC1CCCN(C(=O)Nc2cccc(C)c2)C1 (configuration not stated)	-4.5%

Further records follow.
Structure	hNpr1 antagonist
CCOCC(=O)N1C[C@@H](Oc2ccccc2)C[C@H]1C(=O)NCCOC	-3.0%
Cn1nccc1C(=O)N1C[C@@H](Oc2ccccc2)C[C@@H]1C(=O)N1CCOCC1	6.3%
CCn1nc(C)c(-c2cc(C(=O)NCC3Cn4cccc4C(=O)N3C)no2)c1C (configuration not stated)	-11.6%
CCc1nc(C)c(C(=O)N2CCC3(CC2)CC(c2ccccc2)CN(CC)C3)o1 (configuration not stated)	1.0%
COCCNC(=O)C1CC(=O)N(c2n[nH]c3cc(Br)ccc23)C1 (configuration not stated)	1.5%
CC(C)N1CCN(C(=O)C23CCCC=C2N(c2ccccc2)C(=O)CC3)CC1 (configuration not stated)	-15.9%
CC(C)c1ccc(S(=O)(=O)N(C)CC2CCOCC2)cc1	?
Cc1ccc(-c2nc(-c3nnn4c3COC(c3ccc(C)cc3)C4)no2)cc1 (configuration not stated)	0.0%
Cc1ccnc(N2CCC(c3nnc(-c4ccc(F)cc4)o3)CC2)n1	4.7%
OCC1(CNCC2CCCC2)C[C@@H](O)[C@@H](O)C1 (some centres not stated)	4.1%[70.6 µM]
CCc1nc(C)sc1C(=O)N1CCN(c2ccc(C)cc2)C(=O)C1	0.1%
NCCC(=O)N1CCCC(N2CCN(Cc3ccc4c(c3)OCO4)CC2)C1 (configuration not stated)	4.9%
Cc1cc(C)n(CCC(=O)N2c3ccccc3CC2c2noc(C3CCOCC3)n2)n1 (configuration not stated)	-29.3%
N#Cc1ccc(S(=O)(=O)N2CCC(C(=O)N3CCCCCCNC(=O)CC3)CC2)cc1	3.5%
Cc1ccc(OCC(=O)N2CCC(c3noc(-c4ccccc4)n3)C2)cc1 (configuration not stated)	1.9%

Continued.
Structure	hNpr1 antagonist
CS(=O)(=O)N1CCCN(S(=O)(=O)c2ccccc2)CCC(=O)NCC1	-4.8%
CC(C)(CC(=O)O)CC(=O)N1CCN2C(=O)N(Cc3ccccc3)C(=O)[C@H]2C1	5.3%[70.6 µM]
COc1ccccc1Oc1c(CCC(=O)NCc2ccco2)c(C)nn1-c1ccc(F)cc1	-26.6%
CCOc1cccc(-c2noc(-c3nc(CC)no3)n2)c1	-0.5%
COCCC(=O)N1CCCC(C(=O)N2CCN(c3ccccn3)CC2)CCNC(=O)CC1 (configuration not stated)	-1.5%
CCOCCn1c(=O)[nH]c2cc(C(=O)NCC(=O)N(C)C)ccc21	-1.5%
CCOc1ccc(C2NC(=O)N(Cc3nncn3C(C)C)C3=C2C(=O)OC3)cc1 (configuration not stated)	4.0%
COc1ccc(-c2nn(-c3ccccc3C)cc2CN2C[C@@H](C)O[C@@H](C)C2)cc1F	-7.3%
Cc1ccc(N2CCN(c3nc4c(c(=O)[nH]3)CCNC4)CC2)cc1	6.6%
O=C(N1CCC(n2cc(-c3nc(-c4ccccc4)no3)nn2)CC1)C1(c2ccccc2)CC1	12.6µM*
CCN1CCN(CCCNC(=O)CCC[C@H]2NC[C@@H]3C[C@H]2CN(Cc2ccccc2)C3)CC1	-8.4%
C=Cc1cccc(CN2CCC(CNS(=O)(=O)C3CC3)C2)c1 (configuration not stated)	0.2%
COC[C@H]1C[C@@H](NC(=O)c2cnccn2)[C@H](O)[C@@H]1O	1.3%[70.6 µM]
COc1ccc(NC(=O)N[C@H]2C[C@@H](C(=O)N[C@H](Cc3c[nH]c4ccccc34)C(N)=O)N(C(=O)C=C(C)C)C2)cc1	0.8%
Cc1oc(C(O)c2ccccc2F)nc1C(=O)N1CCN(c2ccccn2)CC1 (configuration not stated)	5.0%[70.6 µM]

hNpr1 antagonist: entries above that show a hit.
Structure	hNpr1 antagonist
CC(=O)Nc1ccc(S(=O)(=O)N[C@H]2CO[C@H]3[C@@H]2OC[C@@H]3Nc2nccc(-c3ccco3)n2)cc1	12.6µM*
O=C(N1CCC(n2cc(-c3nc(-c4ccccc4)no3)nn2)CC1)C1(c2ccccc2)CC1	12.6µM*

More entries follow.
Structure	hNpr1 antagonist
Cc1cc2nc3n(c(=O)c2n1CC(=O)NCc1ccccc1)CCCCC3	7.7%
Cc1ccc(C(=O)N2CCCN(CC3CC3)C(C(C)C)C2)cn1 (configuration not stated)	0.9%
CC(=O)Nc1ccc(CNC[C@H]2COCc3nc4c(C)cccc4n32)cc1	?
C[C@@H]1CN(C(=O)CCN(C)S(C)(=O)=O)C[C@@]1(O)C1CC1	7.3%
O=C(NCc1nnc2cc(-c3nc(C4CC4)no3)ccn12)c1ccc(F)cc1Cl	7.08µM*
COc1ccc(-c2nnc([C@H]3CCN(C(=O)c4ccc(F)cc4)C3)o2)cc1	0.9%[70.6 µM]
Cc1noc(-c2cn(C3CCN(C(=O)COc4ccccc4)C3)nn2)n1 (configuration not stated)	-1.2%
Cc1c(-c2ccccc2F)[nH]c2ccc(CNC(=O)CCn3cnnc3)cc12	0.1%
CCNC(=O)N[C@H]1[C@H](O)[C@H](O)C[C@@H]1c1cccc(C)c1	0.8%[70.6 µM]
O=C(NC1CCN(c2cc(-c3ccc(F)cc3)[nH]n2)C1)c1cccc(OC(F)(F)F)c1 (configuration not stated)	-11.9%
CCCN(C)c1nccnc1OC1CCN(C(=O)c2ccncc2)C1 (configuration not stated)	1.8%
O=C(c1cccs1)N1CCC(Oc2cccc(F)c2)C1 (configuration not stated)	-20.5%
COC(=O)c1ccc2nc(C[C@@H]3C[C@@H](C(C)C)[C@H](CNC(=O)N4CCOCC4)C=C3C)[nH]c2c1	-5.6%
COc1ccc(-c2cn3cc(C(=O)N4CCCC4)nc3c(=O)n2CC2CC2)c(F)c1	-25.5%
CC(C)C[C@@H](CO)n1cc(-c2cncnc2)nn1	1.6%

Other structures follow.
Structure	hNpr1 antagonist
CC(=O)c1ccc(N2CC[C@@H](NC(=O)c3cnccn3)[C@H](O)C2)nc1	3.1%
O=C(CC1CCCN(c2cn[nH]c(=O)c2)C1)NC1CCCCC1 (configuration not stated)	4.5%
Cc1ncoc1C(=O)N1CC(F)(F)C[C@H]1c1nnc(C2CC2)o1	4.0%
COc1cccc(NC(=O)C2CC(=O)Nc3ncnn32)c1 (configuration not stated)	1.0%
COc1cc(C(=O)NC[C@@H]2CC[C@H]3C[C@@H]2C3(C)C)nc2ccccc12	6.8%[70.6 µM]
O=C(Cn1nc2c(cc1=O)CCCC2)N1CCn2c(nnc2C(F)(F)F)C1	5.7%
Cc1ncc2c(c1CNC(=O)c1ccc3cccnc3c1O)CCNC2	-1.0%
Cc1noc(C)c1CN1CCC2(CC1)COCCN2C(=O)OCc1ccccc1	-2.1%[70.6 µM]
COCCN1C(=O)c2ccccc2C(C(=O)NCc2ccccc2OC)C12CCCC2 (configuration not stated)	-2.3%
CC(C)Oc1cccc(-c2n[nH]c3c2CC(=O)N(Cc2ccccn2)C3)c1	-6.8%[70.6 µM]
Cc1csc(NC(=O)[C@@H]2CCC[C@@H](NC(=O)c3cccnc3)CN(C)C(=O)C2)n1	-16.5%[70.6 µM]
Cc1cc(F)ccc1OC1CN(CC2CC2)C1	11.8%[70.6 µM]
COCCOc1ccc2c(n1)CCN(C(=O)c1nn(C)c3ccccc13)C2	3.8%
O=C(c1cccnc1)N1CCC(Oc2ccccc2)C1 (configuration not stated)	0.0%
COc1ccc([C@H]2C[C@@H](O)[C@@H](O)[C@@H]2NS(=O)(=O)c2ccc(C(F)(F)F)cc2)cc1	1.6%[70.6 µM]

Further structures
Structure	hNpr1 antagonist
CCCc1ccc2oc(C(=O)N(CC)Cc3ccncc3)c(C)c2c1	12.6µM*
O=C1CN(C(=O)c2csc3nc(-c4ccc(C(F)(F)F)cc4)cn23)CCCN1	?
N#Cc1cccc(-c2cn3c(n2)N(C(=O)c2ccccc2)CCC3)c1	-5.3%
COCc1noc([C@@H]2CC(F)(F)CN2C(=O)C2CC=CC2)n1	1.1%
Cc1cc(OC2CN([S+](=O)([O-])c3ccccc3)C2)ccc1F	-1.9%[70.6 µM]
COc1ccc(C(=O)NCC2(COc3ccc(S(C)(=O)=O)cc3)C[C@@H](O)[C@@H](O)C2)cc1 (some centres not stated)	3.9%
Cc1cc2nc3n(c(=O)c2n1CC(=O)N1CCN(c2ccc(F)cc2)CC1)CCCCC3	-5.7%
Cc1ccc(CN2CCN(C(=O)CCC3CCN(C(=O)c4ccccc4)CC3)CC2)cc1	?
COc1ccc(Nc2cc3c(nc2-c2ccccc2)nc(C(=O)NCCN(C)C)n3C)cn1	-2.2%
Cc1noc(C)c1Cc1ccc(C(=O)N2CC(N(C)Cc3cccnc3)C2)o1	0.6%
CCn1ncc(NC(=O)Cn2ncc3cc(-c4cc(F)ccc4F)ccc32)n1	?
COc1ccc(CCC(=O)N2CCCC(c3nc(C4CCOCC4)no3)C2)cc1 (configuration not stated)	-15.1%
CCNC(=O)N1CCCCCC1c1nc(C2CC2)no1 (configuration not stated)	-8.8%
COc1cc(CN2CCC[C@H]2c2nc(-c3ccc(-c4ccncc4)nc3)no2)cc(OC)c1OC	1.5%
COc1ccc(NC(=O)N[C@@H]2C=C[C@@H](c3c(C)nn(-c4ccc(C(C)C)cc4)c3C)C2)cc1	-26.5%

Other records
Structure	hNpr1 antagonist
COCCN(Cc1ccc(C)cc1)Cc1ccc(C#N)cc1	0.0%
O=C(Cc1ccccc1)N1CCC2(CCCCO2)CC1	-0.2%
O=C(c1ccc(F)cc1)N1CCC(N2CC3CCCN3C2=O)CC1 (configuration not stated)	0.7%[70.6 µM]
CC(=O)N1CCC(N2C[C@@H](F)[C@@H](OCc3nc4ccccc4o3)C2)CC1	1.0%[70.6 µM]
CCN(CC)CC(=O)N1CCC(Oc2ccccc2C)(C(=O)O)CC1	0.0%
Cc1ccccc1-c1cc(C(=O)NCCC(N)=O)c2c(c1)N(C)CCO2	2.1%[70.6 µM]
CN1C[C@H]2CN(C(=O)c3ccc(C(F)(F)F)cc3)CCN2C1=O	3.9%[70.6 µM]
CN(CC1COc2ccccc2O1)C(=O)c1cn(Cc2ccccc2Cl)nn1 (configuration not stated)	0.0%
COC(=O)[C@H](NC(=O)C1=C[C@@H](NC(=O)c2ccc(F)c(Cl)c2)[C@@H](O)[C@H](O)C1)C(C)C	1.6%
O=C(C1CC2(CCNCC2)CN1)N1CCCN(Cc2ccc(F)cc2)CC1 (configuration not stated)	0.9%
Cc1cccn2c(=O)cc(CN3CCC4(CC3)C(C(=O)O)CC(=O)N4C)nc12 (configuration not stated)	-4.6%
O=C(c1ccccc1F)N1CCCC2(C1)NC(=O)N(Cc1ccc(Cl)cc1)C2=O (configuration not stated)	-10.9%
CN1CCN(C(=O)CC[C@H]2CNC(=O)[C@@H]3[C@@H](CCN3Cc3ncc[nH]3)N2C)CC1	1.2%[70.6 µM]
COCCC1(C(=O)O)CCCN(C(=O)c2cc(F)ccc2OC)C1 (configuration not stated)	-7.9%
CCN1CC(CNC(=O)CC2c3ccccc3CCc3ccccc32)CC1=O (configuration not stated)	-0.8%

Further compounds
Structure	hNpr1 antagonist
O=C1N(Cc2cccc(F)c2F)CCCC12CCN(c1nc3ccccc3o1)C2 (configuration not stated)	?
Cn1cc(CC(=O)N2CCCc3ncc(C(=O)NCc4cccs4)cc32)c2ccccc21	-0.1%
CCCNC(=O)C(NC(=O)c1ccccc1C)C1CCN(C(=O)c2ccc(OC)cc2)CC1 (configuration not stated)	5.6%
CC(C)CCNC(=O)N1CCC(OC2CCN(Cc3ccccc3)CC2)CC1	-15.4%
COc1cc(NC(=O)Cn2c(-c3cnccn3)nc(C)c(CCO)c2=O)cc(OC)c1OC	-10.8%
